TsaE inh = YjeE (TsaE) inhibition, E. coli. P0AF67. purified YjeE, fluorescence polarisation of a bound ADP probe. Potency, µM. actives 0.05% (n = 71,000); active = well fitted falling curve; inconclusive = weaker or top-dose-only fall, or a rising curve; inactive = flat or poorly fitted curve;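 note: top concentration of the series not given in the record; excess ADP was the control for the full effect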
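Purified YjeE (10 uM) with BODIPY Texas Red-labeled ADP probe (2 uM); compounds pin-transferred, 15 min at room temperature. Binding inhibition read as decreased fluorescence polarization; ADP titration as control.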
Bst PK mod = modulators of Bacillus stearothermophilus pyruvate kinase; partly purified Bacillus stearothermophilus pyruvate kinase, luminescence ATP production; ribose 5-phosphate activator present at AC10; Potency, µM; actives 1.2% (n = 51,000); in the data active means potency below about 11 µM; inconclusive means mostly about 12 µM to 25 µM; inactive means weaker than that;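 the screen sought inhibitors and activators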;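 note: potency is the fitted concentration of half-maximal effect; scaled between full activation by ribose 5 phosphate and full inhibition by luteolin; about four in five hits inhibit and the cells do not say which; series up to 57 µM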
An asterisk follows results filed as active; i = inactive; ? = inconclusive; nt = not tested or not shown. Only part of the results is shown; the hit share may differ from the screen's.

SMILES	TsaE inh	Bst PK mod
O=C(Nc1ccccc1Cl)c1ccc(S(=O)(=O)N2CCOCC2)cc1	i	nt
CC1(C)NC(=O)N(CC(O)COc2ccccc2C(=O)N2CCCCC2)C1=O (centres undefined)	i	nt
CCOC(=O)c1cccc(NC(=O)C2CCN(S(=O)(=O)c3cnc[nH]3)CC2)c1	i	nt
CCOC(=O)N1CCC(NC(=O)CC(NS(=O)(=O)c2ccc(C)cc2)c2ccco2)CC1 (centres undefined)	i	>57
CC(C)(C)c1cc(NC(=O)c2cccnc2)no1	i	>57
CC(=O)Nc1cccc(N2CCCC2=O)c1	i	>57
CCOc1ccc(NC(=O)COC(=O)Cn2cnnn2)cc1OCC	i	>57
CCOC(=O)c1ccc(NC(=O)Nc2cc(C)on2)cc1	i	>57
CCn1c(=O)cc(SCC(=O)Nc2ccccc2N2CCN(C)CC2)c2ccccc21	i	>57
O=C(CSc1nnc2c3cc(F)ccc3nc(-c3ccccc3)n12)N1CCOCC1	i	>57

The last four compounds of the part above lead into the next.
SMILES	TsaE inh	Bst PK mod
CCOc1ccc(NC(=O)COC(=O)Cn2cnnn2)cc1OCC	i	>57
CCOC(=O)c1ccc(NC(=O)Nc2cc(C)on2)cc1	i	>57
CCn1c(=O)cc(SCC(=O)Nc2ccccc2N2CCN(C)CC2)c2ccccc21	i	>57
O=C(CSc1nnc2c3cc(F)ccc3nc(-c3ccccc3)n12)N1CCOCC1	i	>57
CN1CCN(C(=O)c2ccccc2-c2ccccc2C(=O)O)CC1	i	>57
O=S(=O)(O)c1cc(O)c2c(O)c(N=Nc3cccc4ccccc34)c(S(=O)(=O)O)cc2c1	i	nt
CSc1nc(N2CCOCC2)c2c3c(sc2n1)CCC3	i	>57
C=CCNC(=O)c1ccc(Cl)cc1Cl	i	7.3*
CCC(C)NC(=O)CSc1nc2ccccc2c(=O)n1CCCC(=O)NCC1CCCO1 (centres undefined)	i	>57
CCOC(=O)C1CCN(C(=O)NC23CC4CC(CC(C4)C2)C3)CC1	i	>57
C/C(Cl)=C\Cn1c(Nc2ccccc2)nc2c1c(=O)n(C)c(=O)n2C	i	>57
CC1(C)Cc2cccc(OCC(=O)Nc3ccccc3N3CCOCC3)c2O1	i	>57
Cc1ccc(N2CC(C(=O)Nc3nnc(C)s3)CC2=O)cc1 (centres undefined)	i	>57
Cc1ccc(N2C(=O)c3n[nH]c(C)c3C2c2cccnc2)cc1 (centres undefined)	i	>57

(listing goes on)
SMILES	TsaE inh	Bst PK mod
CC(C)CCn1c(CN2CCN(C(=O)c3ccco3)CC2)nc2c1c(=O)n(C)c(=O)n2C	i	nt
COCc1nnc(SCC(=O)NC(C)c2ccccc2)n1-c1ccccc1 (centres undefined)	i	>57
CCCCSCc1[nH]c(=O)[nH]c1C(=O)CCCCC(=O)OCC	i	nt
Cc1cc(-c2nnc3sc(-c4ccc(Cl)cc4Cl)nn23)n[nH]1	i	>57
CCOC(=O)c1cc(S(=O)(=O)NC2CCN(C(=O)OCC)CC2)cn1C	i	>57
Cc1ccc(O)c(Sc2cc(C)ccc2O)c1	i	>57
CCN(CCN(C)C)C(=O)Cn1ncc2c1-c1cc(C)ccc1OC2	i	nt
Cn1c(=O)c(C(=O)Nc2ncccn2)c(O)c2ccccc21	i	nt
COCCN(Cc1cc2cccc(C)c2n2nnnc12)C(=O)C(F)(F)F	i	>57
COc1ccc(-c2nc(CS(=O)CC(=O)NCCCN3CCCC3)c(C)o2)cc1OC (centres undefined)	i	>57

(further entries)
SMILES	TsaE inh	Bst PK mod
O=C(Cn1nc(C(F)(F)F)c2c1CCC2)N1CCN(c2ccccc2)CC1	i	>57
Cc1nc(SC(C)C)[nH]c(=O)c1Cc1ccccc1	i	nt
Clc1ccc(Nc2nc(-c3cccs3)cs2)nc1	i	>57
CCn1cc(C(=O)NCCCOC)c(=O)c2cc(S(=O)(=O)N(C)C3CCCCC3)ccc21	i	nt
COc1cc(-c2nc3cnccn3c2Nc2ccc3c(c2)OCCO3)ccc1O	i	>57
COc1ccccc1N1CCN(C(=O)CCCC2=NS(=O)(=O)c3ccccc3N2)CC1	i	nt
OCCN(CC(O)Cn1ccc2ccccc21)CC(O)Cn1ccc2ccccc21 (centres undefined)	i	>57
Cc1ccc(/C(O)=C2\C(=O)C(=O)N(CC(C)O)C2c2cccc(F)c2)cc1 (centres undefined)	i	>57
N#Cc1c(C(F)(F)F)cc(-c2ccco2)nc1SCc1ccncc1	i	>57
COc1ccccc1-c1nc(-c2cccc(C)c2)no1	i	9.4*

(continued)
SMILES	TsaE inh	Bst PK mod
Cc1cc2n(n1)C(c1ccco1)Nc1ccccc1-2 (centres undefined)	i	9.5*
O=C(CSc1ccc2nnc(-c3ccc(F)cc3)n2n1)N1CCCCC1	i	>57
Cc1cc(C(=O)CSc2nnc(NCc3ccccc3)s2)c(C)n1C	i	>57
COc1ccc(C2C(C(=O)N3CCCCC3)CCC(=O)N2c2cc(OC)c(OC)c(OC)c2)cc1 (centres undefined)	i	>57
Cc1csc(NC(=O)CSc2nnc(C)n2Cc2ccco2)n1	i	>57
CN(C)c1ccc(-c2noc(C3CCN(S(=O)(=O)c4cccc(Cl)c4)CC3)n2)cc1	i	>57
Cc1nn(CC(=O)N2CCN(Cc3ccccc3)CC2)c(=O)c2ccccc12	i	>57
COc1ccc(Oc2ncc3nc(CCc4ccccc4)c(=O)n(C4CC4)c3n2)cc1	i	nt
CCOC(=O)CC(=O)CSc1nc2c(cc1C#N)CCCCCC2	nt	>26
CC(=O)c1c(N2CCN(Cc3ccccc3)CC2)[nH]c(-c2ccccc2)nc1=S	i	nt

Continued.
SMILES	TsaE inh	Bst PK mod
COc1ccc(Cn2c(C3CC3)nc3ccc(NC(C)=O)cc3c2=O)cc1	i	nt
Cc1ccc(S(=O)(=O)NC(C)C(=O)Nc2ccccc2C(=O)N2CCCC2)cc1 (centres undefined)	i	>57
CC(=O)Nc1nc(C(=O)Nc2c(C)n[nH]c2C)cs1	i	>57
CC1CCN(S(=O)(=O)c2ccc3[nH]c(=O)cc(C(=O)O)c3c2)CC1	i	>57
Cc1coc2c(C)c3oc(=O)c4c(c3cc12)CCC4	i	>57
CC(C)CN1CCCC2(CCN(C(=O)c3cccc(F)c3)CC2)C1	i	nt
CC(C)n1cnc2cc(NCc3nc4ccccc4n3C)ccc21	i	nt
O=C(CCCN1C(=O)CCC1=O)Nc1ccc(Cl)c(C(F)(F)F)c1	i	>57
CCOC(=O)COc1ccc(S(=O)(=O)Nc2ccc3c(c2)OCO3)cc1	i	>57
O=C(CN1CCN(c2ncc(C(F)(F)F)cc2Cl)CC1)Nc1ccc2c(c1)OCO2	i	>57

3 compounds already listed, sorted by SMILES length, highest first:
SMILES	TsaE inh	Bst PK mod
CCOC(=O)c1ccc(NC(=O)Nc2cc(C)on2)cc1	i	>57
Cc1cc2n(n1)C(c1ccco1)Nc1ccccc1-2 (centres undefined)	i	9.5*
Cc1ccc(O)c(Sc2cc(C)ccc2O)c1	i	>57

One compound at a time, from the list above:
COc1ccc(C2C(C(=O)N3CCCCC3)CCC(=O)N2c2cc(OC)c(OC)c(OC)c2)cc1 (centres undefined) is entered as TsaE inh: i; Bst PK mod: >57
N#Cc1c(C(F)(F)F)cc(-c2ccco2)nc1SCc1ccncc1 is entered as TsaE inh: i; Bst PK mod: >57

Additional structures:
SMILES	TsaE inh	Bst PK mod
Cc1cc(=O)[nH]c(SCC(=O)Nc2ccc(S(=O)(=O)N3CCCCC3)cc2)n1	i	>57
CCC(C)(C(=O)NC1CCCCC1)N(Cc1ccco1)C(=O)c1ccc2c(c1)OCO2 (centres undefined)	i	>57
Cc1ccc2nc3c(cc(C(=O)NCc4cccnc4)c(=N)n3C(C)C)c(=O)n2c1	i	>57
CCc1ccc(N/C(SC)=C(/C#N)C(N)=O)cc1	i	>57
Nc1c(C(=O)NC2CCCCC2)nsc1C(=O)OCC(=O)NC1CCCCC1	i	>57
COc1ccc(-c2noc(COc3ccc4c(c3)OCO4)n2)cc1OC	i	>57
COCCn1c(=O)c(-c2cccc(C#N)c2)nc2cnc(Oc3ccc(OC)cc3)nc21	i	nt
Cc1nnc(NC(=O)c2cc3n(n2)C(C(F)(F)F)CC(C2CC2)N3)s1 (centres undefined)	i	>57
COCCn1c(=O)c(-c2cn(C)c3ccccc23)nc2cncnc21	i	nt
O=C(Nc1ccncc1)Nc1ccccn1	i	nt

The listing continues:
Values run as follows: TsaE inh, Bst PK mod
Cc1c(NS(=O)(=O)c2ccc3c(c2)c(=O)n(C)c(=O)n3C)c(=O)n(-c2ccccc2)n1C
→ i, >57
Cc1cc(NC(=O)CSc2nnc(C(C)N(C)C)n2Cc2ccccc2)no1 (centres undefined)
→ i, >57
COc1cccc(S(=O)(=O)Nc2ccc(C(=O)N3CCOCC3)cc2)c1
→ i, >57
CC1CCCN(C(=O)c2ccc3c(c2)C(=O)N(CCC2=CCCCC2)C3=O)C1 (centres undefined)
→ i, nt
CC(C)C[C@@H](CC(=O)N[C@H](CC(=O)N[C@@H]1CCCC[C@H]1C(=O)N[C@H](CC(=O)N[C@@H](CCC(=O)O)CC(=O)O)CC(C)C)C(C)C)NC(=O)[C@@H]1CCCC[C@H]1N
→ i, nt
COC(=O)c1ccc2c(c1)NC(=O)C(N1CCOCC1)S2 (centres undefined)
→ i, >57
O=C(CSc1nnc(-c2ccco2)o1)N1c2ccccc2CCc2ccccc21
→ i, >57
CC1=C(C(=O)Nc2ccc(F)cc2)C(c2ccncc2)C2=C(CCCC2=O)N1 (centres undefined)
→ i, >57
C=CCOc1ccc(NC(=O)C2CC(=O)N(C(C)C)C2)cc1 (centres undefined)
→ i, >57
Cc1cccc(NC(=O)C2c3ccccc3C(=O)N3CCc4ccccc4C23)n1 (centres undefined)
→ i, >57
Cc1cc(=O)c2ccccc2s1
→ i, >57
CCOC(=O)CN(C(=O)CSc1nnc(CNc2ccc(C)cc2C)n1CC)c1ccccc1
→ i, >57
O=C1NCC(O)=C1C=NC12CC3CC(CC(C3)C1)C2
→ i, >57
O=c1cc(CO)occ1O
→ i, nt
Nn1c(Cc2ccccc2F)nnc1SCn1nnc2ccccc2c1=O
→ i, >57

Other entries
Values run as follows: TsaE inh, Bst PK mod
N[C@H](C(=O)O)c1ccc(O)c(C(=O)O)c1
→ i, nt
Cc1ccc(OCc2nnc(SCC(=O)Nc3cc(C)on3)n2C)cc1
→ i, >57
O=c1c(O)c(-c2ccc(O)c(O)c2)oc2ccccc12
→ i, nt
O=C(CSc1ncc(-c2ccc(F)cc2)[nH]1)NCc1ccco1
→ i, >57
CCc1nnc(NC(=O)C2CCCN2S(=O)(=O)c2ccc(C)cc2)s1 (centres undefined)
→ i, nt
COCCn1nnnc1CN1CCOCC1
→ i, >57
Cc1cccc(C(CC(=O)N2CCCC2)c2ccccc2)c1O (centres undefined)
→ i, >57
CC(C)Cc1nc(SCC(=O)NCc2ccccc2)n[nH]1
→ i, >57
COc1ccc(C2N(c3cc(Cl)ccc3OC)C(=O)C3CCCN32)c(OC)c1 (centres undefined)
→ i, nt
COc1ccc(C(=O)CSc2ncn[nH]2)cc1OC
→ i, nt
O=C(Sc1nnnn1C1CCCCC1)c1cccs1
→ i, >57
O=C(OCCN1C(=O)c2ccccc2C1=O)c1cccc(OC(F)F)c1
→ i, >57
COc1ccc(-c2ccc(=O)n(CC(=O)Nc3cccc(O)c3)n2)cc1OC
→ i, nt
CCOCCCNC(=O)C(c1ccc(OC)cc1)N(Cc1ccc2c(c1)OCO2)C(=O)CNC(C)=O (centres undefined)
→ i, >57
CN(C)c1ccc(CN2CCCC(O)C2)cc1 (centres undefined)
→ i, nt

Next entries:
Values run as follows: TsaE inh, Bst PK mod
CCOC(=O)N1CC=C2C(C#N)=C(N)C(C#N)(C#N)[C@H](c3cccs3)[C@H]2C1
→ nt, >26
OCCNCC(O)Cn1ccc2ccccc21 (centres undefined)
→ i, >57
CC(=O)N1CCN(CCN=CC2=C(O)CC(c3ccc(Cl)cc3)CC2=O)CC1 (centres undefined)
→ i, nt
CC(=O)Nc1ccccc1C
→ i, nt
CSc1nc(-c2ccco2)nn1C(=O)c1cccs1
→ i, >57
Cc1cc(=O)n2nc(N3CCCC(C(=O)NCCc4ccccc4)C3)sc2n1 (centres undefined)
→ i, >57
Cc1ccc2oc(=O)c3cnn(CC(=O)N4CCCCC4C)c3c2c1 (centres undefined)
→ i, nt
CCOC(=O)C1CCCN(C(=O)c2cc(Nc3ccc(OC)c(OC)c3)nc3ccccc23)C1 (centres undefined)
→ i, i
O=c1c2ccccc2nnn1Cc1ccccn1
→ i, >57
CCOC(=O)N1CCN(C(=O)CSc2nc3c(cnn3-c3ccc(C)cc3)c(=O)[nH]2)CC1
→ i, nt
O=C(CCC(=O)N1CCCC1)Nc1nnc(C(F)(F)F)s1
→ i, >57
COC(=O)c1cccc(S(=O)(=O)N2CCC(n3nnc4cc(F)ccc43)CC2)c1
→ i, >57
CCCCn1c(CN2CCN(C(=O)c3ccco3)CC2)nc2c1c(=O)n(C)c(=O)n2C
→ i, nt
O=c1c2[nH]c3ccc(F)cc3c2ncn1CCCn1ccnc1
→ i, nt
COc1cccc(NC(=O)c2cccnc2)c1
→ i, nt

Continuation.
Values run as follows: TsaE inh, Bst PK mod
O=C(NC(Cc1ccc(F)cc1)C(=O)O)c1ccccc1 (centres undefined)
→ i, >57
CCc1ccc(CC)c(S(=O)(=O)Nc2ccc(O)c(C(=O)O)c2)c1
→ i, >11
CCOC(=O)CC(=O)CSc1nc2c(cc1C#N)CCCCC2
→ nt, ?
COc1nnc(-c2ccc(N3CCOCC3)c(NC(=O)c3ccco3)c2)c2ccccc12
→ i, nt
O=C(/C=C\c1ccc(O)c(O)c1)OCCc1ccccc1
→ i, nt

Assay outcomes deposited in PubChem by National Center for Advancing Translational Sciences (NCATS).
